NPYLR7 agonist – mosquito NPYLR7 agonism; HEK293T NPYLR7/Galpha15, GCaMP6s calcium fluorescence; activation, % at 10 µM; actives 0.15% (n = 270,000); AID 1259423; in the data active = activation above about 40%;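 note: 0% = vehicle and 100% = reference agonist at the receptor; some compounds past the cut are filed as inactive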
NPYLR7 agonist max-min – also measured in NPYLR7 agonist; calls as there; activation, %; measured here: Max-Min RFU normalised activation; some inactives read as strong as hits;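 span of the calcium signal over five minutes; 0% = vehicle and 100% = native peptide agonist; compound fluorescence can raise it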
* hit, by the source's call; & = joins results of further samples.

Results follow in this order: NPYLR7 agonist | NPYLR7 agonist max-min
- Cc1cc(C2=CC(C)(C)NC(C)(C)C2)sc1C1=CC(C)(C)NC(C)(C)C1
    0 | -4
- Cc1cc(O)c(C(c2ccc(F)cc2)N2CCN(c3ccccc3)CC2)c(=O)n1Cc1ccco1 (stereo not drawn)
    8 | 3
- COc1cc(C2=NC(=Cc3ccc(F)cc3)C(=O)O2)cc(OC)c1OC
    12 | 10
- COc1cn(CC(=O)N2CCc3ccccc32)c(CSc2ccccc2)cc1=O
    -4 | -11
- C=CCNC(=O)c1ccccc1N1CCC(NC(=O)c2ccccc2OC)CC1
    -3 | 2
- Cc1cc(C)n(-c2nnc(C)c(=O)[nH]2)n1
    1 | -1
- CC1CN(c2ccc(-c3nnc(Br)s3)cc2)CC(C)(C)O1 (stereo not drawn)
    -1&1 | -1&0
- CSCc1ccc(NC(=O)C(=O)N(C)CC(=O)NC(C)C)cc1
    19 | 8
- COCCN(CC(=O)N(CCc1c[nH]c2ccccc12)Cc1ccc(OC)c(OC)c1)C(=O)c1ccc(-c2ccccc2)cc1
    24 | 22
- O=C(NCCCC(=O)N1Cc2ccccc2C1)NCC1CCOC1 (stereo not drawn)
    6 | 15
- CC(=O)C(C)n1c(=O)c2c(nc3n(-c4cccc(Cl)c4C)c(C)cn23)n(C)c1=O (stereo not drawn)
    0 | 9
- OCc1ccc(-c2cncc(N3CCN(CCN4CCCC4)CC3)n2)cc1
    -9 | -12
- Oc1ccc(C2SCCS2)cc1
    1 | 7
- CC(C)CN(CC(=O)N(CCc1c[nH]c2ccccc12)Cc1ccccc1)C(=O)Nc1c(Cl)cccc1Cl
    34 | 29
- Clc1ccccc1C1CCN(Cc2ncc[nH]2)C1 (stereo not drawn)
    0 | 3
- CNC(=O)[C@@]1(OCc2cccc(F)c2)CC(OCc2ccccc2C#N)[C@@H]2OC(C)(C)O[C@@H]2C1 (stereo partly drawn)
    18 | 25
- Cc1nc(COc2ccc(C(=O)NC3CC3)cc2)cs1
    2 | 2
- COc1ccc(C(C)(C)C)cc1NC(=O)c1cc2c(s1)CCCC2
    -1 | -2
- Cc1ccc2c(=O)c3ccccc3n(CCCN)c2c1C
    -2 | -9
- O=C(NCc1cccs1)c1cccc(S(=O)(=O)N2CCCCC2)c1
    -15 | -20
- Cc1cccc(-n2c(Cc3ccccc3)nnc2SCc2ccc(C(=O)O)cc2)c1
    -1 | -5
- Cc1nc2ccccc2nc1NCC(C)(C)N1CCCCC1
    -3 | -2
- Cc1ccc(-c2ccnc(NCc3ccccc3-n3cncn3)n2)c(C)n1
    9 | 6
- COc1ccc(NC(=O)Cn2c(-n3nc(C)cc3C)nc(C)c(C)c2=O)c(OC)c1
    0 | 5
- COC(=O)CCSc1ccc(S(=O)(=O)N2CCOCC2)cc1[N+](=O)[O-]
    -4 | -8
- CCOC(=O)CCC(=O)N1CCC2(CC1)NC(=O)c1cc(Cl)ccc1N2
    2 | 16
- Cc1c(S(=O)(=O)N2CCC(C)CC2)c(=O)n(C)c(=O)n1C
    -2 | -3
- COc1ccc(OCc2cc(C(=O)N3CCCN(C(C)=O)CC3)n[nH]2)c(Cl)c1
    9 | 2
- CCC(CC)C(=O)Nc1nnc(SCC(=O)Nc2ccc(F)cc2)s1
    5 | 5
- O=C(C1CCC1)N(Cc1nccn1Cc1cccc(Cl)c1)C1CCCCC1
    2 | 6

Results follow in this order: NPYLR7 agonist | NPYLR7 agonist max-min
- Cc1cc(NC(=O)C2CCC2)n(-c2ccc(C(F)(F)F)cn2)n1
    0 | 0
- Cc1nonc1C1CCCN1c1ncnc2sc3c(c12)CCNC3 (stereo not drawn)
    8 | 0
- CCOC(=O)[C@H]1C[C@]2(CCCCNC2=O)N(C(=O)Cc2cccs2)[C@H]1c1ccco1
    0 | 12
- O=C(Nc1ccc2ncsc2c1)c1cccc(CN2CCCC(O)C2)c1 (stereo not drawn)
    -4 | -8
- COc1ccccc1-n1c(SCc2ccc(C(=O)NCc3ccc4c(c3)OCO4)cc2)nnc1-c1ccco1
    9 | 11
- Cc1cc2c(cc1C)NC(c1cccc(Oc3ccccc3)c1)C1C(=O)CC(C)(C)CC1=N2 (stereo not drawn)
    -2 | -7
- CC(C)(C)CC(=O)Nc1ccc(NS(C)(=O)=O)cc1
    7 | 5
- CCCc1nc(C(=O)N2CCC(O)(c3ccccc3C)C2)cs1 (stereo not drawn)
    11 | 9
- NNc1nc(Nc2ccc(Cl)cc2)nc(N2CCOCC2)n1
    4 | -7
- CN1C(=O)[C@]2(C)[C@H](c3ccccc31)[C@@H](C(N)=O)CN2C(=O)c1ccc(F)cc1
    24 | 33
- Cc1ccc(C)c2c1N(Cc1ccccc1)C(=O)C21OCCO1
    8 | 8
- Cc1nc(C(C)C)sc1C(C)N(C)C(=O)CCc1ccc(F)c(F)c1 (stereo not drawn)
    5 | 5
- CCOC(=O)C1CCN(C(=O)c2ccc(Nc3c(OCC)cnn(-c4ccc(Cl)cc4)c3=O)cc2)CC1
    4 | 17
- Cn1c(=O)n(CC(=O)NCc2cccc(Cl)c2)c2ccccc21
    3 | 2
- Cn1c(C2CCC2)nc2cc(C(=O)N3CCc4c([nH]c5ccccc45)C3)cc(NC(=O)C3CCCO3)c21 (stereo not drawn)
    23 | 7
- COCC1CCN(C(=O)Nc2ccc(Cl)c(C(F)(F)F)c2)C1 (stereo not drawn)
    2 | -1
- Cc1ccc(S(=O)(=O)N(C)C)cc1Br
    9 | 7
- CCNC(=O)[C@@H]1C[C@H](N)CN1C(=O)c1cccc2cc(C)oc12
    7 | 3
- O=C(NCC1(Cn2cccn2)CC1)c1c(O)cccc1O
    1 | 1
- O=c1c(C(F)(F)F)c2c(nn1CN1CCc3sccc3C1c1cccs1)CCC2 (stereo not drawn)
    4 | 3
- O=C1c2ccccc2NC(c2cc3ccccc3nc2Cl)N1CCCN1CCOCC1 (stereo not drawn)
    -3 | -4
- O=C(CNC(=O)c1ccccc1)N=Nc1c(O)[nH]c2ccc([N+](=O)[O-])cc12
    -6 | -11
- Cc1ccc(C)c(OCCCC(C)(C)C(=O)N2CCCC2c2nnc3c(C(F)(F)F)cccn23)c1 (stereo not drawn)
    -11 | -15
- Cc1nn(CC(=O)N2CCC(c3ccccc3C(=O)O)C2)c(C)c1C (stereo not drawn)
    21 | 10
- O=C(NCCc1ccc(OC(F)F)cc1)c1ccc2c(c1)OCO2
    13 | 2
- Fc1ccc2nc(C3CCCN3Cc3nnc(-c4ccccc4)o3)[nH]c2c1 (stereo not drawn)
    -3 | -2
- CS(=O)(=O)Cc1ccc(C(=O)Nc2ccc(Cl)nn2)cc1
    4&9 | 2&7
- C=CC(C)(O)CN(CCCOC)Cc1cccc(C)c1 (stereo not drawn)
    26 | 24
- Cc1cc(C)nc(NS(=O)(=O)c2ccc(NS(=O)(=O)c3ccccc3[N+](=O)[O-])cc2)n1
    4 | 3
- CC(C)S(=O)(=O)N1CCCC(C(=O)c2cccc(C(F)(F)F)c2)C1 (stereo not drawn)
    14 | 4

Record cards, as listed above. Screens in order: NPYLR7 agonist	NPYLR7 agonist max-min
Entry for O=C(CNC(=O)c1ccccc1)N=Nc1c(O)[nH]c2ccc([N+](=O)[O-])cc12 = -6	-11
Entry for CCNC(=O)[C@@H]1C[C@H](N)CN1C(=O)c1cccc2cc(C)oc12 = 7	3
Entry for Cc1cc(C)nc(NS(=O)(=O)c2ccc(NS(=O)(=O)c3ccccc3[N+](=O)[O-])cc2)n1 = 4	3
Entry for NNc1nc(Nc2ccc(Cl)cc2)nc(N2CCOCC2)n1 = 4	-7
Entry for C=CC(C)(O)CN(CCCOC)Cc1cccc(C)c1 (stereo not drawn) = 26	24

Additional records follow:
Results follow in this order: NPYLR7 agonist | NPYLR7 agonist max-min
- O=C(CCn1c(=O)oc2ccccc21)NCc1ccc(C(F)(F)F)cc1
    -4 | -8
- CCC(=O)N1CC2(CC)CN(C(=O)CC)CC(CC)(C1)C2=O
    4 | 0
- c1ccc(OCCn2c(CCCN3CCCCC3)nc3ccccc32)cc1
    2 | 1
- CCC(C)(NCC#Cc1ccc(C(F)(F)F)cc1)C(N)=O (stereo not drawn)
    -1 | -3
- COc1ccc(NC(=O)c2ccc(CN3CCOC(C)C3)cc2)cn1 (stereo not drawn)
    12&0 | 6&-1
- CCS(=O)(=O)Oc1cccc(-c2nc3cc(S(=O)(=O)CC)ccc3o2)c1
    13 | 16
- Cc1ccc2[nH]c3nc4ccccc4nc3c2c1
    -4 | -9
- Cc1ccc(CNS(=O)(=O)CCCC#N)cc1F
    -5 | -10
- CCCCN(CC(=O)N(CCc1c[nH]c2ccccc12)Cc1ccc(F)cc1)C(=O)COc1ccccc1
    -1 | 3
- O=S1(=O)CCC(Nc2ncnc3c2oc2ccccc23)C1 (stereo not drawn)
    8 | 2
- C=CCNC(=O)c1ccc2nc(Cc3ccc(OC)cc3)oc2c1
    3 | -1
- C=CCCOC(=O)N1[C@@H](c2ccccc2)[C@@H](C(=O)NC)C[C@]12CCCCN(C)C2=O
    -1 | 3
- CC1CN(S(=O)(=O)CCOC(C)C)C(C)(C)C1 (stereo not drawn)
    -11 | -13
- Cc1cnc2n(c1=O)C(CC(=O)O)CS2 (stereo not drawn)
    -4 | -7
- C/C=C/C(=O)NC1CC2CCC(C1)N2Cc1ccc2c(c1)OCO2 (stereo not drawn)
    7 | 8
- Fc1ccc(/C=N\Nc2nc(N3CCCCC3)nc(N3CCOCC3)n2)cc1
    -3 | -6
- CC(C)(O)CN1CC(C)(C)CN(C(=O)COc2ccccc2)CC1=O
    0 | 11
- Cc1cc(N2CCCCC2C)ccc1N (stereo not drawn)
    24 | 13
- C=CCn1c(SCC(=O)N2CCCC2=O)nc2sc3c(c2c1=O)CCCC3
    -2 | -4
- COc1ccc(Nc2ncnc3ccc(C)cc23)cc1
    2 | 3
- c1cc(C(CNc2nccc(C3CCCC3)n2)N2CCOCC2)ccn1 (stereo not drawn)
    3 | 1
- O=S(=O)(c1ccsc1)c1cccs1
    4 | 1
- CCOC(=O)CN1C(=O)CNC1=O
    28 | 34
- CCOc1ccc(N=Nc2c(C)n[nH]c2C)c([N+](=O)[O-])c1
    1 | -2
- N=C(N=C(N)N)N1N=CCC1c1ccccc1 (stereo not drawn)
    -6 | -12
- COC(=O)C(c1ccc(OC)cc1)C1C=CC(NC(=O)c2c(F)cccc2C(F)(F)F)C1 (stereo not drawn)
    -2 | -2
- O=C1NC2(CCN(C(=O)COc3ccccc3)CC2)Nc2cccc(F)c21
    -2 | 0
- O=C(NC(Cc1ccccc1)C(=O)NNS(=O)(=O)c1cn[nH]c1)OCc1ccccc1 (stereo not drawn)
    3 | -1
- COC(=O)Cn1c(O)c(N=NC(=O)CNC(=O)/C=C/c2ccccc2OC)c2ccccc21
    13 | 16
- CN(C)CC1(O)CCN(C(=O)c2cc(C3CC3)[nH]n2)C1 (stereo not drawn)
    6 | 0

Next part; the last two above are carried over.
Results follow in this order: NPYLR7 agonist | NPYLR7 agonist max-min
- COC(=O)Cn1c(O)c(N=NC(=O)CNC(=O)/C=C/c2ccccc2OC)c2ccccc21
    13 | 16
- CN(C)CC1(O)CCN(C(=O)c2cc(C3CC3)[nH]n2)C1 (stereo not drawn)
    6 | 0
- CC(=O)Oc1c(-c2ccc(NC(=O)c3ccc4c(c3)OCO4)cc2)c(-c2ccc(N(C)C)cc2)nn1-c1ccc(C)cc1C
    0 | 2
- N#Cc1ccc(NCC2(c3ccc(Cl)cc3)CCOCC2)nc1
    -15 | -16
- O=C1NC(=O)/C(=C/c2csc(-c3ccccc3)n2)S1
    11 | 7
- CC(=O)c1ccc(N(CCOc2ccccc2)S(C)(=O)=O)cc1
    1 | -4
- Nc1cc(=O)n2c(n1)SCC2CS(=O)(=O)c1ccccc1 (stereo not drawn)
    7 | 1
- O=C(O)Cc1cn2ccsc2n1
    1 | 0
- Cc1ccc(NC(=O)C(C)S(=O)(=O)Cc2cccc(F)c2)cc1 (stereo not drawn)
    9 | 6
- COc1ccc(S(=O)(=O)NC2CC3CCC2(C)C3(C)C)cc1 (stereo not drawn)
    3 | 4
- COc1ccc(OC)c(/C=N\NC(=O)CSc2nnc(-c3ccccc3)n2-c2ccccc2)c1
    -7 | 2
- CCOC(=O)c1ccc(NC(=O)CN2CCOC(C)C2)cc1 (stereo not drawn)
    1 | 1
- O=C1OCCC1S(=O)(=O)c1ccccc1 (stereo not drawn)
    16 | 15
- Cc1ccc(S(=O)(=O)N2CCN(C(=O)C3CCCCC3)CC2)cc1
    -15 | -16
- O=C(O)CSc1ncnc2sc3c(c12)CCCC3
    1 | 35
- CC1CCC(C(C)C)C(OC(=O)c2ccc([N+](=O)[O-])s2)C1 (stereo not drawn)
    5 | 32
- Cc1cc(C)n(N=Cc2ccc(Cl)cc2)c(=O)c1C#N
    -1 | -4
- CCc1nnsc1C(=O)N1CCC(O)(c2ccc(C)cn2)CC1
    3 | -1
- CCc1nnc(CNC(c2ccccc2)c2cccc(Cl)c2)o1 (stereo not drawn)
    8 | 3
- CSc1ccccc1NC(=O)N1CCC2(CC1)CNC(=O)C2
    16 | 12
- N#Cc1nc(N)nc(N(c2ccccc2)c2ccccc2)n1
    0 | -3
- COC(=O)Nc1cccc(Oc2cc(=O)n(C)c(=O)n2C)c1
    -5 | -9
- O=C(NCCCn1cccn1)c1ccc2nc(-c3ccc4c(c3)OCO4)[nH]c2c1
    -1 | -3
- O=C(CCNC(=O)c1ccc(Cl)cc1)Nc1ccc2c3c(cccc13)CC2
    -9 | -10
- CCn1c(=S)sc2c(=O)[nH]c(-c3cccs3)nc21
    -3 | -6
- COCCNC(=O)Cn1cc(OC)c(=O)cc1CSc1nc(C)cs1
    -6 | -10
- CCCc1cc(=O)oc2cc(O)ccc12
    13 | 5
- COC(=O)c1ccc2c(c1)C1CC(C)(O2)N(c2ccc(C)c(F)c2)C(=O)N1 (stereo not drawn)
    0 | 2
- CCOc1ccc(C2CC(c3ccccc3OC)=NN2C(=O)CN2CCC(C(N)=O)CC2)cc1 (stereo not drawn)
    0 | 3
- CCc1cc(N2CCC3(CC2)CNC(=O)C3)nc(N2CCCC2)n1
    -3 | -2
- Cc1nc2sccn2c(=O)c1NC(=O)CCC1CCCCC1
    7 | 0
- O=C1CCN(CC(O)Cc2ccccc2)c2cc3c(cc2CN1Cc1ccccc1)OCO3 (stereo not drawn)
    16 | 26

The list is partial, so the mix of outcomes need not match the whole.
